Screening data: PubChem BioAssay, ICCB-Longwood Screening Facility, Harvard Medical School
RVFV N-RNA FP: inhibitors of Rift Valley Fever Virus nucleocapsid-RNA interaction; 0.1% of 20,000 active; % bound, % (no concentration beside the values); P21700; RVFV N-RNA binding, fluorescence polarization; stronger effect = lower value; AID 651828;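 active means between 0 and 58% in either replicate with normal brightness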;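 further: 100 nL library stock added to about 12 µL; 100% = protein and probe without compound and 0% = probe alone; numbers are from one replicate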
Target sequence (P21700 whole entry, looked up): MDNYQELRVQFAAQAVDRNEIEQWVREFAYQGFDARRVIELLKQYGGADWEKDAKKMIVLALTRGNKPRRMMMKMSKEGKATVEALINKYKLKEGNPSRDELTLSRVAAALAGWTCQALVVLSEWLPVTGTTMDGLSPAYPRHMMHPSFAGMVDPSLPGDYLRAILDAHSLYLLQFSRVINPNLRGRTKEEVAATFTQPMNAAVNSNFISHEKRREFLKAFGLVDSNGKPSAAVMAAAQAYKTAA
* marks the source's active call; other numbers are inactive results; & = joins results of further samples. These rows are one share of the data; the hit share may differ from the screen's.

Compound,RVFV N-RNA FP
COc1nc(N=C(N)N)nc2ccc(C)cc12,90
CCCCn1c2ccccc2c2nnc(SCCN3CCOCC3)nc21,89
CCOC(=O)c1cc(NC(=O)N(C(C)C)C(C)C)c(C)nc1C,105
O=C(CCC1COc2ccccc2O1)N1CCCC1 (stereo unspecified),111
Cc1cccc(-c2[nH]c(C(C)(C)C)nc2-c2ccc3nccnc3c2)n1,95
COC(=O)c1cc2cccc(OC)c2oc1=O,101
O=C(NCCO)c1ccc(N2C(=O)CCC2=O)cc1,95
O=C(O)CCCn1cc(NC(=O)CCc2ccccc2)cn1,94
COCc1cc(C)nc2sc(C(=O)Nc3ccc4c(c3)OCO4)c(N)c12,95
COc1ccc(CCN)cc1OC,111
Cc1[nH]cnc1CN1CCN(C/C=C/c2ccccc2)CC1,98
Cc1ccc(S(=O)(=O)c2nc(C(C)(C)C)oc2NCc2ccccc2)cc1,95
COC(=O)[C@H](NC(=O)c1cc(-c2ccccc2)nc2ccccc12)c1ccccc1,97
O=C1C2C3c4ccccc4C(c4ccccc43)C2C(=O)N1/N=C/c1ccco1 (stereo unspecified),102
CC(=O)Nc1scc2c1c(=O)oc1ccccc12,85
COC(=O)c1c(NC(=S)N(C)Cc2c(C)nn(C)c2C)sc2c1CCC2,102
O=C(CCN1CCOCC1)Nc1ccc(S(=O)(=O)Nc2cc(Cl)cc(Cl)c2)cc1,93
CN1CCc2cc(Cl)c(O)cc2[C@@H](c2ccccc2)C1,100&93
c1ccc(OCC2CCCN3CCCCC23)nc1 (stereo unspecified),97
COc1ccccc1N1CCN(C(=O)C(C)c2ccc(CC(C)C)cc2)CC1 (stereo unspecified),99
OC(CNCc1ccco1)CON=C1c2ccccc2-c2ccccc21 (stereo unspecified),96
CCn1nnc2c(N3CCN(C=O)CC3)ncnc21,93
Cc1ccc2nc(NC(=O)NC3CC(=O)N(c4ccc5c(c4)OCCO5)C3)sc2c1 (stereo unspecified),105
COc1ccc(N2CCN(C(=O)CCNS(=O)(=O)c3ccccc3)CC2)cc1,104
CC(C)NC(=S)Nc1cccc(C(=O)O)c1,98
O=S(=O)(Nc1ccccc1O)c1ccc2ccccc2c1,98
CCc1cc(-c2n[nH]c(C(=O)O)c2-c2nc(C)cs2)c(O)cc1O,89
CC1CN(C(=O)c2ccncc2)CC(C)O1 (stereo unspecified),107
COc1ccc(CN2CCCC2C(=O)Nc2ccc(OC)c(OC)c2)cc1OC (stereo unspecified),85
C#CCn1c(=NC(=O)C2COc3ccccc3O2)sc2cc(Br)ccc21 (stereo unspecified),98

Quoted at random: ten records from the list.
Compound,RVFV N-RNA FP
C#CCn1c(=NC(=O)C2COc3ccccc3O2)sc2cc(Br)ccc21 (stereo unspecified),98
Cc1ccc(S(=O)(=O)c2nc(C(C)(C)C)oc2NCc2ccccc2)cc1,95
CCn1nnc2c(N3CCN(C=O)CC3)ncnc21,93
CCc1cc(-c2n[nH]c(C(=O)O)c2-c2nc(C)cs2)c(O)cc1O,89
COC(=O)c1c(NC(=S)N(C)Cc2c(C)nn(C)c2C)sc2c1CCC2,102
O=C(O)CCCn1cc(NC(=O)CCc2ccccc2)cn1,94
OC(CNCc1ccco1)CON=C1c2ccccc2-c2ccccc21 (stereo unspecified),96
CCOC(=O)c1cc(NC(=O)N(C(C)C)C(C)C)c(C)nc1C,105
COc1ccc(CN2CCCC2C(=O)Nc2ccc(OC)c(OC)c2)cc1OC (stereo unspecified),85
CC(C)NC(=S)Nc1cccc(C(=O)O)c1,98

(further entries)
Compound,RVFV N-RNA FP
Cc1ccccc1CN1CCC(O)CC1,99
O=C(OC1CCc2ccccc2C1=O)c1ccc(O)cc1 (stereo unspecified),100
COc1ccc(F)cc1S(=O)(=O)NCC1COC2(CCCCC2)O1 (stereo unspecified),91
CSc1nnc(-c2csc(S(=O)(=O)Nc3cccc(C(F)(F)F)c3)c2)n1C,96
O=S(=O)(c1ccccc1)N1CCn2cccc2C1c1ccccc1 (stereo unspecified),99
S=c1[nH]nc(-c2cccs2)n1C1CCCCC1,99
C=CCN1C(=O)CC(N2CCOCC2)C1=O (stereo unspecified),98
CCN1C(=O)c2ccc(-c3ccc(C=C4C(=O)NC(=O)NC4=O)o3)cc2C1=O,92
C=CCNc1oc(COc2cccc(Cl)c2)nc1C#N,96
CCn1c(O)c(/C=C2\C=C(C)N=C2C)c(=O)[nH]c1=S,107
CN(C)/C=C1/N=C(c2ccccc2)OC1=O,107
CCSC1=N/C(=C\c2ccsc2)C(=O)S1,95
O=C(Nn1cnnc1)c1ccccc1-c1ccccc1,99
O=c1nc(SCCN2CCCCC2)nc2ccccn12,88
CN(C)c1nc(N2CCOCC2)nc(N2CCOCC2)n1,101
CCOCC(=O)Nc1cccc(-c2nc3cccnc3s2)c1,95
CNc1nsc(C(=O)c2ccc(OC)cc2)c1N,97
CN(C)c1ccc(N2C(=O)CC(NNc3ccccc3)C2=O)cc1 (stereo unspecified),91
Cc1nc(-c2nc(-c3c(C(=O)N/N=C/c4ccc(Cl)cc4)noc3C)cs2)cs1,90
CN(CC(=O)C(C#N)c1ccccc1)Cc1ccccc1 (stereo unspecified),104
CC(=O)Nc1ccc(NC(=O)c2ccccc2N(C)S(C)(=O)=O)cc1,96
CCCCNC(=O)c1cc2c(C)cc(C)cc2[nH]1,100
Cn1c(CCCC(=O)O)nc2cc(N(CCCl)CCCl)ccc21,91
CCC(=O)Nc1c(C(N)=O)oc2ccccc12,95
CCC(=O)n1nc(-c2ccccc2)nc1NCc1ccccc1,105
Cc1ccc(NC2OC(C(O)CO)C(O)C2O)cc1C (stereo unspecified),101
O=C(CSc1nc2[nH]ncc2c(=O)[nH]1)N1CCCc2ccccc21,94
CC(C)(C)NS(=O)(=O)Nc1ccccc1,108
COc1cccc(CNn2cn[nH]c2=S)c1OCc1ccccc1,86
CC(C)C(NC(=O)Cc1ccccc1)C(C)C,101

Eight compounds already listed, arranged by formula weight, largest number first.
Compound,RVFV N-RNA FP
Cn1c(CCCC(=O)O)nc2cc(N(CCCl)CCCl)ccc21,91
CCC(=O)n1nc(-c2ccccc2)nc1NCc1ccccc1,105
CCn1c(O)c(/C=C2\C=C(C)N=C2C)c(=O)[nH]c1=S,107
S=c1[nH]nc(-c2cccs2)n1C1CCCCC1,99
CNc1nsc(C(=O)c2ccc(OC)cc2)c1N,97
CCCCNC(=O)c1cc2c(C)cc(C)cc2[nH]1,100
CC(C)C(NC(=O)Cc1ccccc1)C(C)C,101
Cc1ccccc1CN1CCC(O)CC1,99

The list continues:
Compound,RVFV N-RNA FP
Cc1cc(C)nc(C#N)n1,99
COc1ccc(N2CC(NC(=O)NCc3ccc4c(c3)OCO4)CC2=O)cc1OC (stereo unspecified),96
CCOC(=O)CSc1nc(=O)cc(N)n1Cc1ccc(F)cc1,103
Cc1c(C(=O)Nc2ccc(F)cc2)cnn1-c1ccc(F)cc1,96
Cc1ccc(-c2nnc(SCCC(=O)Nc3ccccc3)n2C)cc1,92
CSC1=C(C#N)C(c2ccco2)C(C(=O)Nc2ccccc2C)=C(C)N1 (stereo unspecified),100
S=c1[nH]c(=S)c2cnn(-c3ccccc3)c2[nH]1,97
Cc1c(C)c(C)c(CN2CCCC2)c(C)c1C,93
CNc1ncnc2c1ncn2[C@H]1C[C@H](OP(=O)(O)O)[C@@H](COP(=O)(O)O)O1,97
Cc1ccc(SC(C)C(=O)NC(C)(C)C)cc1 (stereo unspecified),96
OCCN(Cc1ccccc1)Cc1ccc(C(F)(F)F)cc1,96
CC(C)CC(=O)Nc1ccc(NC(=O)CC(C)C)cc1,90
CCNC(=S)NCCc1ccncc1,103
C[N+]1(C)CCC(OC(=O)C(c2ccccc2)c2ccccc2)CC1,107
O=C(Cc1cc(=O)[nH]c(=O)[nH]1)N1CCCCC1,90
N#C/C(=C\N1CCC(n2cccc2)CC1)C(=O)c1ccccc1,94
Brc1ccc(-n2cccc2)nc1,100
Cc1nc(NC(=O)c2oc3ccccc3c2C)sc1C(=O)N(C)C,90
O=C1C=C(Nc2ccccc2)CC(c2ccccc2)C1 (stereo unspecified),101
CCN(C(=O)CCn1c(=O)sc2ccccc21)c1cccc(C)c1,89
O=C(c1ccc(NS(=O)(=O)c2ccccc2)cc1)N1CCCC1,95
Cc1ccc(CN(C(=O)c2ccccc2)C2CCS(=O)(=O)C2)cc1 (stereo unspecified),97
O=C(Nc1ncn[nH]1)c1cccc(Br)c1,88
O=C(Nc1ccc(Cl)cc1)C1CCCCC1,101
CCc1ccc(NC(=O)CSC)cc1,94
CN(C)C(CC(=O)Nc1ccc(Nc2ccccc2)cc1)C(=O)O (stereo unspecified),104
CCC(C)NC(=O)NCc1ccccc1F (stereo unspecified),93
Cc1onc(-c2ccccc2)c1NC(=O)Nc1ccc(-n2ccc(C(F)(F)F)n2)cc1,96
O=C(CSC1=NCCS1)c1ccc2c(c1)OCCO2,94
Cc1ccccc1NC(=O)COc1ccc(N2CC(C(N)=O)CC2=O)cc1 (stereo unspecified),101
O=C(CN1CCC(C(=O)O)CC1)Nc1ccccc1Oc1ccccc1,92
O=C(O)[C@@H]1CCN1,96
COC(=O)C(C(=O)OC)=C(SC)SC,93
Cc1cc(C)c2c(N)nn(C)c2n1,89
CSC1=NCCN1C(=O)c1cccc(C)c1,95
CC(Cc1ccc(OCC(=O)O)cc1)NCC(O)c1cccc(Cl)c1 (stereo unspecified),97
O=C(CN1C(=O)c2ccccc2C1=O)N1CCCC1,92
CCCCSc1ccc(NCCC(=O)c2ccco2)cc1,91
COc1ccccc1CNC1CCCCC1C (stereo unspecified),92
O=S(=O)(c1cccs1)N1CCCC2C=CC=CC21 (stereo unspecified),98
Clc1ccc(C(Cn2ccnc2)OCc2csc3c(Cl)cccc23)c(Cl)c1 (stereo unspecified),98
Cc1nc2c(ccc3nc(Nc4nc5cc6c(cc5s4)OCCO6)sc32)s1,90
Nc1nc2c(s1)c(=O)[nH]c(=O)n2-c1ccc(Cl)cc1,93
CCc1cc(-c2oncc2-c2ccc(Br)cc2)c(O)cc1OC,99
CC(=O)OC(OC(C)=O)C12C=CC(O1)C1C(=O)N(c3ccccc3-c3ccccc3)C(=O)C12 (stereo unspecified),100
Cc1ccc(S(=O)(=O)/C(C#N)=C/c2ccccc2)cc1,94
O=C(O)c1cc(Cl)c(Cl)cc1C(=O)O,95
CC(C)/C=N/NC(=O)c1cccc(N2CCCC2=O)c1,93
CC(Cc1ccccc1)NC(=O)Cc1ccc(N(C)C)cc1 (stereo unspecified),93
CC1(C)CN=C(Nc2nc3ccccc3s2)S1,97
CCOC(=O)C1CCCCN1Cc1ccco1 (stereo unspecified),102
COc1ccc2c3c1O[C@H]1C[C@@H](O)C=C[C@@]31CCN(C)C2,91&96
O=C(c1cccs1)C(NS(=O)(=O)c1ccccc1)NS(=O)(=O)c1ccccc1,102
O=C(O)/C=C\C(=O)Nc1nn[nH]n1,91
O=C(Nc1ccccc1)Nc1ccc2ncccc2c1,94
O=C(NCCO)C(c1ccccc1)c1ccccc1,106
Cc1cccc(N(CC(=O)Nc2c(C)n(C)n(-c3ccccc3)c2=O)S(C)(=O)=O)c1,97
[O-]/[N+](=C\c1cccs1)c1ccc(Cl)cc1,97
CS(=O)(=O)NCCSCc1ccccc1,98
CCc1ccc(N2C(=O)Nc3ccccc3S2(=O)=O)cc1,89

Continuation:
Compound,RVFV N-RNA FP
Cc1cn2c(=O)c(C(=O)NCC3CCCC(CNC(=O)c4cnc5sc(C)cn5c4=O)C3)cnc2s1 (stereo unspecified),101
CCn1c(O)c(C=Nc2cccc(OC)c2)c(=O)[nH]c1=S,94
O=C(Nc1nnc(-c2ccccc2)o1)c1ccccc1,84
CCc1nc2cc(Cl)c(Cl)cc2[nH]1,98
COC(=O)c1ccsc1NC(=O)c1ccsc1NC(=O)c1cccnc1,94
N#CCNC(=O)COc1ccc(Cl)cc1,101
CO[C@H]1CC=C2CCN3CCC4=C(CC(=O)OC4)[C@]23C1,97
CC1CCN(C(c2ccc(F)cc2)c2sc3ncnn3c2O)CC1 (stereo unspecified),89
CO[C@H]1C=CO[C@@]2(C)Oc3c(C)c(O)c4c(O)c(c(C=NN5CCN(C6CCCC6)CC5)c(O)c4c3C2=O)NC(=O)C(C)=CC=C[C@H](C)[C@H](O)[C@@H](C)[C@@H](O)[C@@H](C)[C@H](OC(C)=O)[C@@H]1C,94
CCCCCS(=O)(=O)N1C(=O)CSC1=Nc1ccccc1,94
CCCCN1C(=O)C2NN=C(C(=O)OC)C2C1=O (stereo unspecified),99
C=C(C)C1CCC(C)=C1CC/C(C)=N/NC(N)=O (stereo unspecified),94
Fc1ccccc1NCc1nnc2n1CCCCC2,94
COC(=O)c1ccccc1-c1ccc(/C=C(\C#N)C(=O)NCc2ccco2)o1,97
Cc1cccn2c(=O)nc(SCC(=O)Nc3ccccc3)nc12,88
CC(C)(C(=O)O)c1ccc(C(O)CCCN2CCC(C(O)(c3ccccc3)c3ccccc3)CC2)cc1 (stereo unspecified),98&95
COc1ccc(-c2cc(-c3ccc(C)cc3)nc(N3CCCCC3)n2)cc1,96
N#C/C(=C\c1ccoc1)S(=O)(=O)c1ccccc1,93
CC1CN(CC(=O)Nc2ncc(Cc3ccccc3F)s2)CC(C)O1 (stereo unspecified),97
CCC(=O)Nc1c2c(nn1C(C)(C)C)CSC2,92
